HIV TAR-Tat: HIV-1 TAR-Tat binding disruption | HIV-1 TAR RNA, Tat peptide displacement FRET; stronger effect = higher value | z-score (concentration not given with the values) | 100,000 tested, 0.6% active;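 note: score is relative to mean and SD of negative controls; some compounds called inactive have numbers as strong as hits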
CDC25B-CDK2 inh: human CDC25B-CDK2/CyclinA binding inhibition. P30305+P24941. HTRF CDC25B-CDK2/CyclinA binding, anti-His/anti-Flag; stronger effect = higher value. z-score (test concentration not listed). 94,000 tested, 0.72% active. AID 1259370;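 note: score is relative to mean and SD of negative controls; strong numbers were not always called active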
* marks the source's active call; other numbers are inactive results; · = no result given.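 Rule for the calls: active = z-score from 3 up in half or more of its runs; inactive = the rest.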 Compounds as they come, and some 0.89% of all compounds hit somewhere here.

SMILES	HIV TAR-Tat	CDC25B-CDK2 inh
C=CCNC(=S)NCc1ccc(-c2csnn2)cc1	·	-0.14
O=c1[nH]c2cc3c(cc2c(=O)n1CCc1nc(-c2ccc(Br)cc2)no1)OCO3	0.48	·
CCOC(=O)c1cnn(-c2ccccc2)c1NC(=O)CN1CCN(c2ccccc2)CC1	·	-0.72
Cc1onc(-c2ccccc2)c1CNC(=O)c1nnc(-c2ccccc2)o1	·	-0.16
O=c1c(-c2ccccc2)c(O)c2ccccc2n1-c1ccccc1	·	-1.29
Cc1ccc(/C=C2\CSc3ccc(F)cc3C2=O)cc1	·	0.65
Cc1nc(CNC(=O)CC(C)C)cs1	-0.71	-1.56
CC1=NN(c2cccc(C(=O)O)c2)C(=O)C1	0.21	-1.06
CC(C)Cn1c(=O)c2ccccc2n2c(CCC(=O)N3CCC(C(N)=O)CC3)nnc12	-1.24	-1.64
CN1C(C(=O)NCCN2CCOCC2)=CC(c2ccc3c(c2)OCO3)=NS1(=O)=O	1.61	-2.43
CC1=C(/C=C/C(C)=C\C=C\C(C)=C\C(=O)O)C(C)(C)CCC1	2.24	·
COc1ccc(OC)c(CCCCCc2cc(OC)ccc2OC)c1	·	-0.92
Cc1cc(C)cc(NC(=O)N2CC(C)Sc3ccccc32)c1 (stereo unspecified)	2.28	·
O=S(=O)(c1ccc(F)c(F)c1)N(Cc1cc(CN2CCOCC2)cs1)c1ccc(F)cc1	1.04	·
O=C(Nc1ccccc1Br)N1CCC(CN2CCc3ccccc3C2)CC1	1.75	·
CCOC(=O)Cc1csc(NC(=O)Nc2cc(OC)ccc2OC)n1	1.95	-0.51
CCOC(=O)CNC(=O)c1c(C)[nH]c(C(=O)OCC)c1C	·	0.28
CCc1nc(-c2csc(S(=O)(=O)Nc3ccc(-c4ccno4)cc3)c2)no1	-0.27	·
COc1cc(C2C(C#N)=C(N)Oc3n[nH]c(-c4ccc5c(c4)OCO5)c32)cc(OC)c1O (stereo unspecified)	·	-3.96
CC1CCCC(NC(=O)Cn2ncn3nc(-c4cccs4)cc3c2=O)C1C (stereo unspecified)	-0.15	-3.03
Cn1c(=O)c2c(ncn2CC(=O)NCc2ccco2)n(C)c1=O	-0.27	-0.06
CC(C)c1ccc(S(=O)(=O)c2nnn3c2nc(NCC2CCCO2)c2ccccc23)cc1 (stereo unspecified)	-0.97	-0.88
Cc1ccc(S(=O)(=O)c2ccc(C(=O)Nc3ccc(Cl)cc3)cc2[N+](=O)[O-])cc1	·	0.02
CCN1CCN(C(=O)C2=Cc3sc4c(c3CS2)CCCC4)CC1	-0.42	·
CCCCCCCOC(=O)C1=C(C)Nc2ncnn2C1c1ccc(F)cc1 (stereo unspecified)	0.83	0.75
Further structures
SMILES	HIV TAR-Tat	CDC25B-CDK2 inh
Cn1c(=O)c2c(-c3ccccc3Br)n(CCc3c[nH]c4ccccc34)cc2n(C)c1=O	0.23	1.96
Cc1cccc(Nc2cc(C)nc3nc(-c4ccccc4)nn23)c1	-1.03	-0.43
CCCn1c2ccccc2c2cnn(CC(=O)N3CCc4ccccc43)c(=O)c21	2.28	·
CCCCOC(=O)c1ccc(NC(=S)NC(NC(=O)Cc2ccccc2)C(Cl)(Cl)Cl)cc1 (stereo unspecified)	·	-1.66
Cc1ccc(C(CNC(=O)c2cc(=O)c3cc(C)c(C)cc3o2)N(C)C)o1 (stereo unspecified)	0.61	-1.54
O=C(O)c1ccc(CNc2nc3ccc(C(=O)c4ccccc4)cc3n3cnnc23)cc1	-0.6	-0.51
O=S(=O)(NCCc1csc2nc(-c3ccc(Cl)cc3)nn12)c1cccc(Cl)c1	1.51	·
Cn1c(=O)[nH]c(=O)c2c1ncn2CCNCc1ccco1	1.32	-2.06
Cc1ccc(C2(C(=O)N3CCC(n4nc(-c5ccccc5)oc4=O)CC3)CC2)cc1	0.22	0.37
CCCN1CCN(c2cc(NCc3ccco3)c3c4c(onc24)-c2ccccc2C3=O)CC1	-4.79	0.3
CCOc1ccc(CNc2nc3nc(C)c(Cl)c(C)n3n2)cc1	-0.53	-2.06
Cc1csc2ncc(C(N)=O)c(=O)n12	-0.15	-2.07
COc1cc(/C=N/NC(=O)CSCc2c(Cl)cccc2Cl)cc(OC)c1OC	·	-1.91
O=C(CC1SC2=NCCN2C1=O)Nc1ccc(Br)cc1 (stereo unspecified)	·	-1.7
COc1ccccc1NC(c1ccccc1)c1nnc(-c2ccccc2F)o1 (stereo unspecified)	1.27	-1.84
CCc1nc(-c2csc(S(=O)(=O)Nc3ccccc3OC)c2)no1	0.19	·
NNC(=O)c1cc2sccc2s1	·	1.04
CCOc1ccc(S(=O)(=O)N(C(=O)c2ccco2)c2cc3sc(=O)oc3c3ccccc23)cc1	0.98	-0.58
CCc1nnc(SCC(=O)Nc2cc(OC)cc(OC)c2)c2cc3sccc3n12	1.48	·
O=C(O)c1ccccc1C(=O)N1CCN(Cc2c(F)cccc2Cl)CC1	·	-2.16
O=C(CSc1ccc(-c2cccs2)nn1)Nc1ccc(Br)cc1	2.14	·
CCC(C)NC(=O)CCC(=O)N1Cc2ccccc2Oc2ncccc21 (stereo unspecified)	1.88	·
Cc1ccc(C2CC(c3ccc(F)cc3)n3nnnc3N2)cc1C (stereo unspecified)	2.16	·
CSC1=C(C(=O)c2ccccc2)CC(CC(=O)O)C(=O)N1c1ccccc1 (stereo unspecified)	2.25	3.9
Cn1c(C(=O)NCc2ccccn2)cc2c(=O)n(C)c3ccccc3c21	·	-0.75
Further compounds.
SMILES	HIV TAR-Tat	CDC25B-CDK2 inh
CCCN1CCN(c2ncc3c(n2)CCN(Cc2cc(OC)ccc2OC)C3)CC1	0.88	·
COC(=O)c1cc(S(=O)(=O)NC2CCCC2)cn1C	0.52	-1.66
COc1ccc(OC)c(C2=NOC(C(=O)Nc3cccnc3)C2)c1 (stereo unspecified)	0.69	-0.08
O=S(=O)(NCC(O)c1ccccc1)c1cc(Cl)sc1Cl (stereo unspecified)	·	-3.57
C=CC[n+]1ccccc1/C=C1\Sc2ccccc2N1CC	-0.33	-0.44
CN1CCOc2ccc(S(=O)(=O)N3CCCc4ccccc43)cc21	1.09	·
CCc1nn(CC(=O)NCCc2c[nH]c3ccccc23)c(=O)c2cc3occc3n12	2.44	-0.19
COc1ccc(-c2nnc(SCCOc3ccc(C)cc3)o2)cc1	-0.26	-1.99
O=c1c(S(=O)(=O)c2cccc(F)c2)c[nH]c2c(F)c(Cl)ccc12	0.43	0.21
Clc1ccc(OCc2noc(-c3ccoc3)n2)c(Cl)c1	·	-1.84
O=C(Nc1nc2ccccc2s1)NC1CC(=O)N(c2cccc(F)c2)C1 (stereo unspecified)	1.5	·
Cc1nc(SCC(=O)NCC2CCCO2)c2c(=O)n(C)c(=O)n(C)c2n1 (stereo unspecified)	·	-0.8
COc1ccccc1-c1coc2cc(OC(=O)c3cncc(Br)c3)ccc2c1=O	0.42	-0.08
CCCNc1nc(N2CCN(C3CCCCC3)CC2)nc2c1cnn2C	0.8	·
CN(Cc1ccccc1)c1ncnc2onc(-c3cccc(Cl)c3)c12	0.3	-0.21
CCOc1cc(C2C(C#N)=C(N)Oc3c2c(C)nn3-c2ccccc2)ccc1O (stereo unspecified)	0.01	-0.47
CCc1cc2c3c([nH]c2cc1S(=O)(=O)NCCN1CCOCC1)CC(C)(C)CC3=O	1.03	·
O=C(c1cc2c(s1)-c1ccccc1OC2)N(Cc1ccco1)C1CCCC1	1.07	-0.62
CC(C)(C)NC(=O)c1oc2ccccc2c1NC(=O)Cc1cccs1	1.48	·
COc1ccc(CNc2nc(N3CCN(CCO)CC3)nc3c2cnn3C)cc1	1.36	·
c1cc2c(cc1CNc1ccc3nncn3n1)OCO2	-1.34	0.03
O=C(Cn1cnc(S(=O)(=O)N2CCCC2)c1)Nc1ccc(Cl)cc1F	0.33	·
O=c1c2[nH]c3ccc(F)cc3c2ncn1Cc1ccccc1Cl	1.3	-0.25
COC(=O)c1c(C)sc2c(C(F)(F)F)cc(OC)nc12	·	-2.16
COC(=O)C1=C(C)N(c2cc(C)cc(C)c2)C(=O)C1	0.9	0.39
Further entries follow:
SMILES	HIV TAR-Tat	CDC25B-CDK2 inh
CCn1c(SC)nc2c(c1=O)C1(CCCC1)Cc1ccccc1-2	1.76	-0.28
COc1cc(OC)c(N(C)C(=O)c2cc3c(s2)-c2ccccc2OC3)cc1Cl	-0.07	-0.68
NC(=O)C1CCN(c2nc3ccccc3c3nc(-c4ccncc4)nn23)CC1	2.06	-1.32
Cc1ccc2oc(C(=O)Nc3nnc(CC(C)C)s3)cc(=O)c2c1	-1.81	-1.46
COc1ccc(N2CC(O)=C(c3nc4ccccc4n3C)C2=N)c(OC)c1	-0.29	-2.18
CC(=O)c1ccc(N2Cc3ccccc3C2)cc1	·	0.54
COCCNS(=O)(=O)c1ccc2c3c1CC(=O)N3CC(C)S2 (stereo unspecified)	0.64	·
Cc1cc(C)c2c(C)c(C(=O)NCC(c3ccc(C)o3)N3CCN(C)CC3)oc2c1 (stereo unspecified)	0.5	-0.97
Cc1ccc(OC(=O)c2c([N+](=O)[O-])c(C)nn2C)c(C)c1	·	-1.52
CN(c1cnn(-c2ccc(Cl)cc2Cl)c(=O)c1Cl)n1cccc1	·	-2.03
C=CCN(c1ccccc1)S(=O)(=O)c1cc(Br)cc2c1N(C(C)=O)C(C)C2 (stereo unspecified)	·	0.27
CC1(C)CC(=O)C2=C(C1)Nc1nc(SCc3ccccc3F)nn1C2c1ccccc1 (stereo unspecified)	1.07	-2.74
CCOCCCNC(=O)CCCC1=NS(=O)(=O)c2ccccc2N1	1.52	·
O=C(CCS(=O)(=O)c1cc(Br)cc2c1N(C(=O)C1CC1)CC2)Nc1cccc(F)c1	2.66	-0.96
COc1ccc(-c2nc3ccccc3[nH]2)cc1OC	2.05	-0.18
O=C1CN(S(=O)(=O)c2ccc(Cl)cc2)CC(=O)N1CCc1ccccc1	·	-1.78
COc1ccc2c(c1)C=C(C(=O)Nc1ccc(Cl)cc1)C=CO2	0.05	0.71
COc1ccc2scc(N3CCCC(C)C3)c(=O)c2c1 (stereo unspecified)	0.97	·
Nc1ccc(N(c2ccccc2)c2ccc(N)cc2)cc1	1.44	-0.24
CCc1ccc(-c2[nH]c3[nH]c(=O)[nH]c(=O)c3c2-c2sc(C)c(C(=O)OC)c2O)cc1	-4.66	-1.99
CCCn1cc(C2CC(=O)N(c3ccccc3)C2=O)c2ccccc21 (stereo unspecified)	-6.32	-2.32
CCc1nnc(SC(CC)C(=O)Nc2ccc(OC)c(Cl)c2)c2cc3occc3n12 (stereo unspecified)	1.82	·
CCC(Sc1nc2ccccc2c2nc3ccccc3n12)C(=O)NCc1ccco1 (stereo unspecified)	-0.19	·
O=C(CC1Oc2ccccc2NC1=O)Nc1ccccc1Cl (stereo unspecified)	-1.19	0.66
COCCCNC(=O)CCc1nc2sc3c(c2c(=O)[nH]1)CCCCC3	1.98	·

Whole records, looked up by structure. Screens in order: HIV TAR-Tat, CDC25B-CDK2 inh
COc1ccc2c(c1)C=C(C(=O)Nc1ccc(Cl)cc1)C=CO2 across the screens: 0.05, 0.71
COc1ccc2scc(N3CCCC(C)C3)c(=O)c2c1 (stereo unspecified) across the screens: 0.97, ·

(more compounds)
SMILES	HIV TAR-Tat	CDC25B-CDK2 inh
CCOC(=O)N1CCN(c2nc(-c3cccs3)cc(C(F)(F)F)n2)CC1	2.23	-1.09
O=C1N(Cc2ccccc2)CCN1C1CCNCC1	1.74	·
C/C(=N/Nc1c(Cl)cncc1Cl)c1csc2ccccc12	·	-1.16
Cc1cccc(-c2nnc(SCc3cc(=O)n4nc(C)sc4n3)o2)c1	0.85	-0.38
CC1(C(=O)Nc2nccs2)Cc2ccccc2C(=O)O1 (stereo unspecified)	0.19	-1.03
O=c1c2nccnc2nc(SCc2cc(=O)n3cc(Cl)ccc3n2)n1Cc1ccccc1	1.6	1.1
Cc1cc(N2CCN(c3ccccc3F)CC2)n2nc(Cc3cccc(F)c3)nc2n1	0.24	·
O=C(O)CSc1cccc2cccc(Cl)c12	·	-0.4
COCCNc1ncnc2c1c(-c1ccccc1)cn2-c1ccc(OC)cc1	·	-1.48
Cc1nc(S(=O)(=O)N2CCC(NC(=O)c3ccccc3)CC2)cn1C	·	-1.12
O=C(COc1ccc2ccccc2c1Br)Nc1ccccc1C(=O)Nc1ccccc1	·	-5.53
COc1ccc(-c2c(O)c3c(OC)c4c(cc3oc2=O)OC(C)(C)C=C4)cc1	-1	·
Cn1cc(C(=O)NC2CCCCCCC2)c(=O)c2cc(S(=O)(=O)N3CCCC3)ccc21	·	-0.73
CCCCOC(=O)Nc1ccc(N(C)C)cc1	0.02	-7.14
Clc1ccccc1CN=C1Nc2ccccc2NC12CCNCC2	-0.23	·
O=c1c(O)c(-c2ccc(OCc3ccccc3)cc2)oc2ccccc12	1.06	-1.17

Compounds above with two or more sulfur atoms, in the order listed:
SMILES	HIV TAR-Tat	CDC25B-CDK2 inh
C=CCNC(=S)NCc1ccc(-c2csnn2)cc1	·	-0.14
O=S(=O)(c1ccc(F)c(F)c1)N(Cc1cc(CN2CCOCC2)cs1)c1ccc(F)cc1	1.04	·
CCc1nc(-c2csc(S(=O)(=O)Nc3ccc(-c4ccno4)cc3)c2)no1	-0.27	·
CCN1CCN(C(=O)C2=Cc3sc4c(c3CS2)CCCC4)CC1	-0.42	·
O=S(=O)(NCCc1csc2nc(-c3ccc(Cl)cc3)nn12)c1cccc(Cl)c1	1.51	·
CCc1nc(-c2csc(S(=O)(=O)Nc3ccccc3OC)c2)no1	0.19	·
NNC(=O)c1cc2sccc2s1	·	1.04
CCOc1ccc(S(=O)(=O)N(C(=O)c2ccco2)c2cc3sc(=O)oc3c3ccccc23)cc1	0.98	-0.58
CCc1nnc(SCC(=O)Nc2cc(OC)cc(OC)c2)c2cc3sccc3n12	1.48	·
O=C(CSc1ccc(-c2cccs2)nn1)Nc1ccc(Br)cc1	2.14	·
O=S(=O)(NCC(O)c1ccccc1)c1cc(Cl)sc1Cl (stereo unspecified)	·	-3.57
COCCNS(=O)(=O)c1ccc2c3c1CC(=O)N3CC(C)S2 (stereo unspecified)	0.64	·
Cc1cccc(-c2nnc(SCc3cc(=O)n4nc(C)sc4n3)o2)c1	0.85	-0.38

Bioassay records: PubChem BioAssay, Center for Chemical Genomics, University of Michigan
